Source: PubChem BioAssay
D2 PAM = potentiates the human D2 dopamine receptor allosterically; DiscoveRx D2 beta-arrestin cells, luminescence, 90 min; 100% = 57 uM dopamine signal; potentiation, % (no concentration beside the values); actives 0.23% (n = 360,000); AID 624464; active = potentiation of 50% or more; inconclusive = 30% to 50%; inactive = 30% or less;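 further: compound concentration not given in the record; tested on top of an EC20 dose of dopamine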
Target sequence (P14416 whole entry, looked up): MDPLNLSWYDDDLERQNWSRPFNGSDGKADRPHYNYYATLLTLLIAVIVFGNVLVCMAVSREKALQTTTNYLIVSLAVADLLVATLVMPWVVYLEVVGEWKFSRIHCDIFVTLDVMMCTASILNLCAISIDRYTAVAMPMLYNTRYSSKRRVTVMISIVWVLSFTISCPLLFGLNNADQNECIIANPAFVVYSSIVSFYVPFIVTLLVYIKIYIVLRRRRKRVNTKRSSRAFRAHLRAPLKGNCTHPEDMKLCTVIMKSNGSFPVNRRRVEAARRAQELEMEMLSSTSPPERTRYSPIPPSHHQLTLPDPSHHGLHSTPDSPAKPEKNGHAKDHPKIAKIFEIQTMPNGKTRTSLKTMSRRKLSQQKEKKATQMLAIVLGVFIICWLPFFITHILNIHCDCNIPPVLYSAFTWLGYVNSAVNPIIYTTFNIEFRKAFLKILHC
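PathHunter D2 cells, attached overnight at 37 deg C, received compound in DMSO plus dopamine at EC20 (50 nM final) for 90 min at 37 deg C. Beta-arrestin recruitment was read as luminescence after 1 h with detection reagent at ambient temperature.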
Menin-MLL FL inh = menin-MLL binding inhibition, fluorescein peptide. Fluorescence polarization, fluorescein-MLL peptide displacement from menin. 290,000 tested, under 10 active. FP activity change, % at 61.4 µM. AID 1766; inconclusive = falling polarisation curve, or a change in total fluorescence; inactive = total fluorescence flat and polarisation flat or rising; no compound was filed as active; the % refers to the polarisation; negative = inhibition;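 further: % of control where 0% means no effect; inhibitors lower the polarisation; unlabelled MLL peptide was the positive control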
ClpP mod = qHTS Assay for Activators of ClpP | Potency, µM (titrated, usually from 57.5 µM), inactives show at the top dose activity change, negative = active | actives 1.9% (n = 340,000) | purified B. subtilis ClpP, FRET peptide cleavage, 20 min | ATP-dependent Clp protease proteolytic subunit (Bacillus subtilis (strain 168)), P80244; active = well fitted falling curve with a large enough effect; inconclusive = small, poorly fitted or top-dose-only effect; inactive = no such curve, though single readings can be large or run the other way; further: potency means the concentration at half of the fitted maximal effect; the source files actives as falling curves though it sought activators and does not explain the sign; nearly all actives have a fitted effect of over 65% in size; many hits overshoot -100%
Target sequence (P80244 whole entry, looked up): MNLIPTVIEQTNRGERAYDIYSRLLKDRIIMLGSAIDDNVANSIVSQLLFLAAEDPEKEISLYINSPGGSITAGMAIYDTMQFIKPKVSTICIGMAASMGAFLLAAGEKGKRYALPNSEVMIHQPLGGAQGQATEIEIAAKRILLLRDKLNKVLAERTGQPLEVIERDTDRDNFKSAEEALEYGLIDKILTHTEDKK
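Buffer: 100 mM Tris/HCl pH8, 100 mM KCl, 0.05% low protease BSA, 2.5% glycerol, 0.01% Tween-20. ClpP 10 microg/mL final; 20 min RT; delta FRET normalized to ADEP and DMSO controls.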
gsp antag = antagonists of gsp mutant (McCune-Albright syndrome); gsp-mutant cells, cAMP HTRF, 30 min; control for the full effect not named in the record; actives 0.4% (n = 340,000); Potency, µM (doses to about 76.9 µM), for the others: at the top dose activity change, negative = inhibition, hits mostly inhibitors; active = falling curve of any shape with a large fitted effect; inconclusive = falling curve, mostly with a smaller effect; inactive = flat or rising curve; cell line not stated here;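 further: intracellular cAMP measured with PDE inhibitor Ro 20-1724 present during compound exposure; potency means the concentration at half of the fitted maximal effect; on the % scale 0 is the no-effect control and ±100 the full control effect; nearly all actives have a fitted effect of over 65% in size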
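Cells in G418 medium, seeded 16-24 h, 37C; buffer exchange to DPBS + 1 mM CaCl2, 0.5 mM MgCl2, 0.05% BSA; cpds in DMSO + […] (300 uM stock), 30 min 37C; HTRF cAMP detection.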
gsp agonist = gsp mutant agonism; gsp mutant cells, cAMP HTRF, 30 min; control for the full effect not named in the record; Potency, µM (top dose mostly 76.9 µM), without a hit: top-dose activation (cAMP increase), most hits filed as activators; actives 0.13% (n = 340,000); AID 624287; active = well fitted activation curve with a large enough effect; inconclusive = small, poorly fitted or top-dose-only effect, or another doubt; inactive = no such curve, though single readings can be large or run the other way; cell line not stated here;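 further: phosphodiesterase inhibitor Ro 20-1724 added with compounds to block cAMP breakdown; potency means the concentration at half of the fitted maximal effect; nearly all actives have a fitted effect of over 60% in size; about a fifth of the inactives were tested at one dose only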
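Cells stably selected in G418 were plated at 2000/well, grown 16-24 hr, then given compounds in DMSO with the PDE inhibitor […] (300 uM solution added) for 30 min at 37C; cAMP was read by HTRF.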
Sfp inh = blocks B. subtilis Sfp PPTase activity. Q9F4F7. Biochemical Sfp PPTase activity, qHTS. Potency, µM, without a hit: max response, negative = inhibition, most hits filed as inhibitors. actives 3.5% (n = 310,000); active means well fitted inhibition curve with a large enough effect; inconclusive means small, poorly fitted or top-dose-only effect, or another doubt; inactive means no such curve, though single readings can be large or run the other way;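 further: the enzyme is Sfp with the accession as filed and its product quenches rhodamine fluorescence; potency means the concentration at half of the fitted maximal effect; 0% = enzyme reaction without inhibitor and -100% = no enzyme wells; top concentration of the series not given in the record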
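Step 1, compound plus 15 nM Sfp-PPTase, 15 min, room temperature. Step 2, add rhodamine-CoA (5 uM) and BHQ-2-YbbR (12.5 uM). Step 3, read 525/598 nm fluorescence at 0 and 30 min.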
TRPV1 potentiator = human TRPV1 potentiation; actives 0.02% (n = 320,000); TRPV1-expressing cells, Fluo-8 calcium influx, capsaicin EC20 potentiation; host cell line not named in the record; control for the full effect not named in the record; Q8NER1; potentiation, % at 8.33 µM; active means potentiation above 80%; inconclusive means 30% to 80%; inactive means below 30%; further: 0% is about no effect
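Cells expressing TRPV1 were dye-loaded with Fluo-8 and read kinetically: 10 s baseline, 3 min after compound (agonist portion), then 2 min after EC20 capsaicin (allosteric enhancer portion). Calcium-bound dye fluorescence at 480/520 nm.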
The depositor's hits bear a star; ? = inconclusive; / = not tested or not shown; & = joins results of further samples; [ ] = remark or other dose. Rows are unselected, and some 5.1% of all compounds hit somewhere here.

molecule	D2 PAM	Menin-MLL FL inh	ClpP mod	gsp antag	gsp agonist	Sfp inh	TRPV1 potentiator
N#CCN1C(=O)C(=O)N(Cc2cccc(Cl)c2)C1=O	-5.7	5.9	0.3%	17.1%	-17.4%	-3.6%	-8.6
COc1ccc(N(CC(=O)NCCc2ccc(Cl)cc2)S(=O)(=O)c2c(C)[nH]c(=O)[nH]c2=O)cc1	-2.8	2.3	/	3.6%	-9.6%	13.9%	-32.7
COc1ccc(N2C(=O)CSC(c3ccccc3)C2=O)cc1 (stereo unspecified)	-5.1	7.2	/	7.0%	-0.7%[15.4 µM]	-1.0%	0.3
COc1ccc(CCC(=O)NNC(=O)c2ccc(F)cc2)cc1	0.9	0.4	/	1.2%	-3.2%[15.4 µM]	16.6%	16.5
CCCc1nnc(SCC(=O)NC2CCCC2)n1CCOC	-1.3	7.9	/	7.8%	-9.2%	11.2%	6.8
Cc1ccc(Cc2c(C)nc3nc(SCC(=O)NCCCN4CCCCC4)nn3c2C)cc1	-14.4	-0.3	/	0.3%	5.1%[15.4 µM]	-6.4%	23.3
C=CC[C@@H](CC(=O)OC(C)(C)C)C(=O)OC[C@@H]1CCCN1C(=O)[C@@H](CC=C)CC(=O)N(CCO)Cc1ccccc1	-8.3	/	-2.2%	-11.9%	/	/	/
Cc1cc2cc3c(cc2nc1SCC(=O)N1CCCC1)OCCO3	-8.9	-2.6	-26.1%	-14.1%	3.2%[15.4 µM]	0.6%	7.9
NCCCCCc1nnc(SCc2cccc(Cl)c2)o1	-5.8	2.4	-0.4%	15.8%	-5.6%	8.4%	16.0
CC1CCCCN1CCCNc1ccc(C(CC(N)=O)NC(=O)Cc2cccc3ccccc23)cc1[N+](=O)[O-] (stereo unspecified)	-16.1	-5.2	-1.2%	1.5%	7.4%	7.3%	11.9
O=C(CCSCCC(=O)Nc1ccccc1F)Nc1ccccc1F	-9.3	2.3	-26.5%	-9.1%	11.4%	-19.9%	18.3
Cc1cc(O)c(C(=O)Cc2csc(C)n2)c(O)c1	-0.8	-3.4	0.4%	6.3%	-21.7%	-2.8%	-20.2
CC(=O)c1cccc(NC(=O)c2ccc(CN3CCc4ccccc4C3)cc2)c1	-3.6	1.1	-5.1%	-0.2%	-33.9%[inhibitor]	9.9%	-17.9
CC(=O)N1N=C(c2ccc(NS(=O)(=O)c3ccccc3)cc2)CC1c1ccco1 (stereo unspecified)	-8.3	/	4.2%	-19.1%	-6.6%	/	6.3
Cc1cc(C)nc(Nc2n[nH]c(C)n2)n1	-0.5	-0.9	-1.8%	5.4%	29.4%	-2.6%	1.4
COCCn1cc(C(=O)NCCCN2CCC(C)CC2)c2c3ccccc3n(C)c2c1=O	-11.7	3.8	31.6µM*	-1.0%	-35.3%	4.4%	7.9
Cc1nc(C)c(-c2ccc(SCc3ccc(Cl)cc3)nn2)s1	3.1	2.8	-0.9%	-13.1%	7.3%	-15.5%	13.2
COc1cccc(CN(C)C(=O)CSCC(=O)Nc2cc(C)on2)c1OC	-14.4	/	/	3.5%	5.8%[15.4 µM]	/	26.2
O=C1[C@H]2[C@H](C=CC[C@H]2C(=O)N2CCN(c3ccccc3)CC2)CCN1Cc1ccccc1	-5.1	/	-2.1%&-1.3%	0.1%	17.6%	/	/
COc1ccc(OC)c(C2C3=C(CC(C)(C)CC3=O)Nc3nnnn32)c1 (stereo unspecified)	9.9	-0.2	-29.5%	-9.1%	-50.5%[inhibitor]	1.0%	17.6
CCOc1ccc(C=Nc2cccc3ncccc23)cc1	-2.6	?	0.3%	-16.5%	-3.4%	?	-21.8
CCCn1c(SCC(=O)N2c3ccccc3Sc3ccccc32)nc2ccccc21	-10.3	0.3	/	-32.0%	-61.3%[inhibitor]	13.2%	6.4
Cc1cc(C)cc(NC(=O)CCN2CCCC2)c1	-9.0	0.3	1.4%	9.9%	-22.0%	18.6%	-2.6
C[C@@H]1CN([C@H](C)CO)C(=O)CCCn2cc(nn2)CO[C@H]1CN(C)C(=O)c1cc(-c2ccccc2)on1	2.9	/	-2.4%	/	-20.1%	/	/

In the list so far, two contain an NH in an aromatic ring.
molecule	D2 PAM	Menin-MLL FL inh	ClpP mod	gsp antag	gsp agonist	Sfp inh	TRPV1 potentiator
COc1ccc(N(CC(=O)NCCc2ccc(Cl)cc2)S(=O)(=O)c2c(C)[nH]c(=O)[nH]c2=O)cc1	-2.8	2.3	/	3.6%	-9.6%	13.9%	-32.7
Cc1cc(C)nc(Nc2n[nH]c(C)n2)n1	-0.5	-0.9	-1.8%	5.4%	29.4%	-2.6%	1.4

Reprinted at random: 3 records from the list
molecule	D2 PAM	Menin-MLL FL inh	ClpP mod	gsp antag	gsp agonist	Sfp inh	TRPV1 potentiator
COCCn1cc(C(=O)NCCCN2CCC(C)CC2)c2c3ccccc3n(C)c2c1=O	-11.7	3.8	31.6µM*	-1.0%	-35.3%	4.4%	7.9
Cc1nc(C)c(-c2ccc(SCc3ccc(Cl)cc3)nn2)s1	3.1	2.8	-0.9%	-13.1%	7.3%	-15.5%	13.2
CC(=O)N1N=C(c2ccc(NS(=O)(=O)c3ccccc3)cc2)CC1c1ccco1 (stereo unspecified)	-8.3	/	4.2%	-19.1%	-6.6%	/	6.3

(further entries)
molecule	D2 PAM	Menin-MLL FL inh	ClpP mod	gsp antag	gsp agonist	Sfp inh	TRPV1 potentiator
COc1ccccc1N1C(=O)C2C(c3ccccc3F)NN(C(=O)c3ccc(C)cc3)C2C1=O (stereo unspecified)	-5.4	-2.3	-3.0%	-2.7%	-59.7%[inhibitor]	?	?
O=C(Nc1ccc(C(=O)N2CCOCC2)cc1)c1cc(-c2cccnc2)nc2ccc(Cl)cc12	1.3	0.0	-3.5%	-6.3%	-0.5%[15.4 µM]	6.6%	1.6
COc1cc(OC)cc(C(=O)NCC(=O)OCC(=O)NC(C)(C)C)c1	-11.8	8.3	-10.4%	-4.2%	-2.9%	4.5%	10.3
CCCC(=O)NC(=S)Nc1cccc(NC(=O)c2ccccc2Cl)c1	2.6	0.5	-0.7%	-2.7%	9.2%	-0.8%	16.1
COc1ccccc1NS(=O)(=O)c1cccc(NC(=O)c2sc3ccccc3c2Cl)c1	-10.3	4.3	-18.4%	-6.7%	-1.1%[15.4 µM]	6.2%	1.5
COc1cc(OC)cc(C(=O)NC2CCSc3ccccc32)c1 (stereo unspecified)	-12.4	/	-0.9%	8.8%	?	23.4%	2.3
O=C(CSC1=NS(=O)(=O)c2cc(F)ccc2N1)Nc1cccc(F)c1	-12.2	/	-1.4%	-15.1%	16.0%	/	19.8
O=C(Nc1cc(C(F)(F)F)ccc1N1CCOCC1)c1ccncc1	-3.4	/	1.5%	-2.9%	-45.5%[inhibitor]	/	/
O=C(NCc1ccco1)Nc1ccccc1Cl	-3.4	5.8	1.0%	11.3%	-6.0%	9.1%	1.0
COc1ccc(NC(C)=O)c2nc(C)c(C)nc12	-6.5	3.2	1.4%	4.7%	13.9%	2.7%	-15.5
CC1=C(C(=O)OC(C)C)C(c2ccccc2)NC(=O)N1C (stereo unspecified)	-12.4	-1.8	2.7%	9.8%	-16.7%	2.7%	0.1
O=[N+]([O-])c1cccc(-c2cn3ccccc3n2)c1	2.9	1.5	/	-9.0%	3.0%[15.4 µM]	3.3%	-8.9
CN(C)c1cccc(C(=O)OCC(=O)NCc2ccco2)c1	-8.8	1.6	0.5%	-11.0%	-17.0%	-0.6%	-8.0
O=C(Nc1nc(-c2ccco2)c(-c2ccco2)s1)C1CCC1	3.1	4.1	?	-10.0%	-27.7%	28.2µM*	-23.9
CCc1cccc(NC(=S)N2CCC(c3ccccc3)C2)c1 (stereo unspecified)	-8.9	-2.3	/	-10.3%	-0.1%[15.4 µM]	3.8%	-1.3
COC(=O)CCC(=O)Nc1ccc(S(=O)(=O)Nc2cc(OC)nc(OC)n2)cc1	-1.0	1.1	0.0%	2.1%	26.1%	9.7%	-5.8
Cc1noc(C)c1C(=O)N1CCCC(C(=O)c2ccc(Cl)cc2)C1 (stereo unspecified)	-4.2	3.1	/	13.6%	-25.1%[15.4 µM]	16.5%	0.4
Cc1cc(-c2nc(C)c(C(=O)NNS(=O)(=O)c3ccccc3)s2)no1	-3.5	1.8	-0.1%	-5.2%	-12.4%	-6.5%	12.9
COC(=O)c1ccc(CN(c2ccc(OC)cc2)S(=O)(=O)c2ccccc2)cc1	2.4	/	1.0%	-11.4%	12.1%[15.4 µM]	/	/
Cc1cc(NC(=O)CSc2nnc(-c3c[nH]c4ccccc34)n2-c2ccc(F)cc2)no1	-9.6	2.0	-10.5%	-23.1%	-62.9%[inhibitor]	24.8%	5.6
O=C(Nc1cc(Cl)ccc1-n1cncn1)c1cccs1	-28.9	/	-1.6%	-5.4%	-10.6%[15.4 µM]	/	-23.4
O=C(COc1ccc(S(=O)(=O)N2CCOCC2)cc1Cl)NCCN1CCOCC1	-6.7	-6.0	/	6.3%	20.5%	18.2%	-3.2
CC(Nc1nc(-c2cccc(Br)c2)cs1)c1nc2cc(Cl)c(N3CCCCC3)cc2n1CCOCCO (stereo unspecified)	-16.4	1.8	-0.5%	-16.6%	24.5%	4.2%	-5.6
CCn1ccnc1CN(C)C(=O)c1ccc(OC2CCN(CCc3ccccc3)CC2)cc1	-32.8	/	-4.2%	15.5%	-22.0%	4.4%	-15.8
OC(CNCCC(c1ccccc1)c1ccccc1)COc1ccccc1 (stereo unspecified)	-17.9	-4.8	/	5.8%	-1.6%[15.4 µM]	-13.0%	-9.0
CCOC(=O)C1CCN(Cc2ccc(OC)c(OCc3ccccc3)c2)CC1	-24.8	-10.5	-0.3%	5.2%	?	-16.9%	8.5
CN1CCC(OC(=O)COc2ccc(C(C)(C)C)cc2)CC1	-11.0	-4.7	-0.1%	15.0%	-22.8%	13.3%	8.5
O=C(CNc1ccc(F)cc1F)NC(=O)NCc1ccco1	-6.2	0.0	/	-4.9%	-4.3%[15.4 µM]	?	2.1
